Source: PubChem
Anaer choline gr = blocks anaerobic gram-negative growth on choline. Gram-negative bacterium anaerobic choline minimal medium, absorbance growth; hits give low values; many inactives read as strong as hits in the columns shown. calls only. 55,000 compounds, 0.2% hits. AID 1963822;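 active means growth z-score on choline under -2 at 7 or 20 h with little or no fall on glycerol, limits in tiers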;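 further: stock transfer was 300 nL into about 50 µL; the organism is E. coli; final concentration not given here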
Anaer choline gr early = recorded beside Anaer choline gr, whose call it bears; z-score; measured here: choline growth z-score, timepoint 1;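 score of optical density at 7 h as mean of two plates; lower means less growth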
* hit, by the source's call; i = inactive; & = joins results of further samples.

Anaer choline gr,Anaer choline gr early,mol
i,-0.48,CCC(CC)C(=O)N1CCC2(CC1)Nc1ccccc1-n1cccc12
i,0.33,Cc1ccc(C)c(NC(=O)NCc2cc(=O)n3nc(-c4ccccc4C)sc3n2)c1
i,0.97,O=C(NC1CC1)c1ccc2c(=O)nc3c(-c4ccccc4)n[nH]n3c2c1
i,-1.1,CC(C)n1cnc(S(=O)(=O)N2CCC(C(=O)N3CCOCC3)CC2)c1
i,-0.2,CC(C)NC(=O)N1CC=C(C(=O)NC(C)(C)C)CC1
i,0.04,COc1ccc(-c2c(C)nn3c4c(cnc23)C(=O)CC(C)(C)C4)cc1
i,-0.17,OCCN1CCN(c2nn3nnnc3c3ccccc23)CC1
i,0.36,CC(C)Cc1nnc(C(=O)Nc2ccc(C(=O)NCc3cccc(F)c3)cc2)s1
i,0,CCCn1c(=O)c2ccccc2n2c(=O)n(CC(=O)Nc3ccc4c(c3)OCO4)nc12
i,0.08,CCn1nnc(NCc2ccc(-c3ccc(Cl)cc3Cl)o2)n1
i,-1.6,Cc1cc(O)c(C(c2ccccc2)N2CCN(C)CC2)c(=O)n1Cc1ccccc1 (stereo not given)
i,1.8,COc1cccc(CSc2nc3ccncc3n2Cc2ccc(C(=O)NCc3ccccc3)cc2)c1
i,-2,CC(C)NC(=O)N1CCC2(C1)C(=O)Nc1ccccc12 (stereo not given)
i,-0.23,CCC(=O)Nc1nc2cc(NC(=O)NCCc3ccccc3)ccc2s1
i,-0.03,Cc1ccc2c(c1)c1nc3ccccc3nc1n2CC(=O)OC(C)C

Anaer choline gr,Anaer choline gr early,mol
i,2.7,CCc1cc(C(Nc2nc(C)cc(C)n2)c2ccc(OC)cc2)c(NC(=O)c2ccccc2)s1 (stereo not given)
i,0.53,CC(=O)Nc1ccc(NC(=O)CCc2c(C)nn(-c3cc(N4CCCC4)ncn3)c2C)cc1
i,0.63,O=c1n(Cc2ccccc2Cl)nc2c(S(=O)(=O)N3CCc4ccccc4C3)cccn12
i,0.74&0.32,O=C(O)c1cc(=O)[nH]c(=O)[nH]1
i,-0.87,Cc1nn(-c2ccc(Br)cc2)c2nc(-c3ccccn3)cc(C(F)(F)F)c12
i,-1.6,Clc1cccc(CNc2cc(-n3ccnc3)ncn2)c1
i,0.25,CCOc1ccc(OCC(=O)Nc2cc(C)nn2-c2nc(C)cc(=O)[nH]2)cc1
i,-0.71,Cc1nc(-c2cc(S(=O)(=O)Nc3ccc(F)cc3)c(C)s2)sc1C
i,-0.54,Cc1cc(C)cc(NC(=O)c2ccc3nnc(C)n3c2)c1
i,0,Cc1ccc(-c2nc3sc(CCNC(=O)c4cc(C)cc(C)c4)c(C)n3n2)cc1
i,1.4,CCOc1ccc(OCC)c(NC(=O)C2=C(C)C(=O)OC23CCN(C(C)C)CC3)c1
i,-0.24,Cc1ccc(-c2cc3c(SCC(=O)Nc4cc(C)ccc4C)nccn3n2)cc1
i,-1,COc1cccc(NC(=O)C2CCN(c3ncccc3-n3c(C)ccc3C)CC2)c1
i,0.46,Cc1cc(C)cc(NC(=O)C2CCCN(c3ccc4cc(S(=O)(=O)N5CCCC5)ccc4n3)C2)c1 (stereo not given)
i,0.25,CC(C)c1csc(-c2csc(S(=O)(=O)NCc3ccc(Cl)cc3)c2)n1

Looked up above.
For Anaer choline gr early, `Cc1nc(-c2cc(S(=O)(=O)Nc3ccc(F)cc3)c(C)s2)sc1C` shows -0.71
For Anaer choline gr early, `Cc1cc(C)cc(NC(=O)C2CCCN(c3ccc4cc(S(=O)(=O)N5CCCC5)ccc4n3)C2)c1` (stereo not given) shows 0.46

Following part.
Anaer choline gr,Anaer choline gr early,mol
i,-1.4,CCn1c(=O)c(=O)n(CC(=O)N2CCCC(C)C2)c2ccccc21 (stereo not given)
i,-1.3,CCOc1ccc(CN2CCCC2c2cc(C(C)C)on2)cc1 (stereo not given)
i,-1,O=C(CCN1C(=O)c2ccccc2C1=O)NCc1noc(C2CCCC2)n1
i,0.62,Cc1cnc(NC(=O)c2cn(-c3ccccc3)nc2-c2ccccc2)s1
i,-0.07,c1nc2nc3c(c(N4CCCCCC4)n2n1)CCC3
i,-0.17,CN(C)c1cccc(C(=O)NCc2nc3cccnc3n2Cc2ccccc2)c1
i,-0.1,Cc1ccc(NCc2nc3nc(C)cc(=O)n3[nH]2)cc1
i,1.2,Cc1c(C)n(C)c2ccc(C(=O)NCCc3ccccc3)cc12
i,0.84,CC(C)Cn1c(=O)c(-c2ccc(C(=O)NCCC3=CCCCC3)cc2)nc2ccccc21
i,-2.4,Cc1[nH]n2c(=O)cc(-c3ccc(F)cc3)nc2c1-c1ccccc1
i,-0.35,COC(=O)c1c(NC(=O)C2=Cc3ccc(C)cc3OC=C2)sc(C)c1C
i,1.2,O=c1[nH]c(SCc2ccc(F)cc2Cl)nc2c1CN(Cc1ccc(F)cc1)CC2
i,0.12,CC(C)CNc1ncnc2c1cnn2C
i,0.59,O=C(Cn1ncc2c(=O)oc3ccccc3c21)Nc1ccc(Oc2ccccc2)cc1
i,-0.42,CCn1nc(-c2csc(S(=O)(=O)N3CCC(C)CC3)c2)ccc1=O

Anaer choline gr,Anaer choline gr early,mol
i,-0.51,CCOc1ccc2nc(NC3=NCN(Cc4cccnc4)CN3)nc(C)c2c1
i,-0.03,O=C(Nc1ccc2c(c1)OCCO2)c1ccc(Oc2ccnc(-c3ccc(F)cc3)n2)cc1
i,-0.12,CCOC(=O)c1cccc(NC(=O)CCc2ccc3nc(CC)[nH]c3c2)c1
i,0.74,CC1=C(c2ccc(C)c(C)c2)S(=O)(=O)N(Cc2ccc(C(=O)O)cc2)C1=O
i,-0.95,COc1ccc(CNc2nccn(-c3ccc4c(c3)OCO4)c2=O)cc1OC
i,-1.4,COc1cccc(N2CCN(S(=O)(=O)c3cc(-c4nc(C)cs4)cs3)CC2)c1
i,1.3,O=C(NCc1ccc(S(=O)(=O)N2CCOCC2)s1)C1(c2ccccc2)CC1
i,0,CCOC(=O)c1nc(Nc2cccc(C)c2)c2c(C)c(C)n(-c3ccccc3)c2n1
i,-0.41,CC(=O)Nc1cc(-c2nc(-c3ccc(NS(C)(=O)=O)cc3)no2)ccc1C
i,1,CCOc1ccc(NC(=O)NCCCn2c(-c3ccncc3)nc3cccnc32)cc1
i,0.78,O=C(CCCN1C(=O)CSc2ncccc21)NCC1CCCO1 (stereo not given)
i,1.1,O=S(=O)(Nc1cccc(-c2nnc(Cc3ccc4c(c3)OCO4)o2)c1)c1ccc(F)cc1
i,0,CCc1nc(CN2C(=O)COc3ccc(S(=O)(=O)NC4CCCCC4)cc32)no1
i,0.2,CCOc1ccc(-c2nn(CC(=O)NC3CCCC3)c3c2cnc2ccc(F)cc23)cc1
i,-1.4,CCc1csc(-c2ccc(S(=O)(=O)NCCN3CCC(C)CC3)s2)n1

Anaer choline gr,Anaer choline gr early,mol
i,-1.3,Cc1nc(-c2cc(S(=O)(=O)NCC(=O)NC3CCCc4ccccc43)c(C)s2)no1 (stereo not given)
i,0.99,COc1ccc2[nH]cc(CCNC(=O)c3cc(C)nc4c3c(=O)n(C)c(=O)n4C)c2c1
i,-0.16,CS(=O)(=O)N1CCC(C(=O)O)CC1
i,0.51,O=C(Nc1ccccc1Cl)c1ccc(-n2cnc3cccnc32)cc1
i,-0.23,COc1ccc(Cl)cc1NCc1nc2nc(C)c(C)c(=O)n2[nH]1
i,-0.55,CC(=O)N1c2ccccc2CC1C(=O)NC1CCN(Cc2ccccc2)CC1 (stereo not given)
i,-1.1,CCC(CO)NCc1ccc(-c2ccccc2)o1 (stereo not given)
i,1.1,CCc1nc(-c2ccc3c(c2)CCN3C(=O)Cc2ccc(Cl)cc2)no1
i,0.91,Cc1cc2oc(C(=O)NCCc3nc(-c4ccccc4)no3)c(C)c2cc1C
i,-0.44,CCc1nnc2ccc(C(=O)O)cn12
i,-1.1,C=Cc1ccc(Cn2c(C)nc3onc(C)c3c2=O)cc1
i,0.7,COc1cc(Nc2nc(-c3nnn(-c4ccc(Cl)cc4)c3C)ns2)cc(OC)c1
i,-1.4,COc1ccc2c(C(O)CN3CCN(c4ccc(F)cc4)CC3)c[nH]c2c1 (stereo not given)
i,-0.77,COc1ccc(-c2noc(-c3cn(Cc4ccc(NS(=O)(=O)c5ccc(Cl)cc5)cc4)cn3)n2)cc1OC
i,-0.5,Cc1cc2c(cc1S(=O)(=O)CCC(=O)Nc1ccccc1F)OCC(=O)N2

Five entries from above in a different format:
Below each compound – Anaer choline gr | Anaer choline gr early
> COc1cc(Nc2nc(-c3nnn(-c4ccc(Cl)cc4)c3C)ns2)cc(OC)c1
    i | 0.7
> CCc1nc(-c2ccc3c(c2)CCN3C(=O)Cc2ccc(Cl)cc2)no1
    i | 1.1
> COc1ccc(-c2noc(-c3cn(Cc4ccc(NS(=O)(=O)c5ccc(Cl)cc5)cc4)cn3)n2)cc1OC
    i | -0.77
> Cc1nc(-c2cc(S(=O)(=O)NCC(=O)NC3CCCc4ccccc43)c(C)s2)no1 (stereo not given)
    i | -1.3
> COc1ccc2[nH]cc(CCNC(=O)c3cc(C)nc4c3c(=O)n(C)c(=O)n4C)c2c1
    i | 0.99

Further compounds
Anaer choline gr,Anaer choline gr early,mol
i,1,FC(F)(F)c1cnc(NC2CC2)c(Cl)c1
i,0.06,Cc1cc(S(=O)(=O)NC(c2ccc(Cl)cc2)c2nnc(-c3ccccc3)o2)ccc1F (stereo not given)
i,-0.44,Cc1sc(-c2noc(C3CC3)n2)cc1NC(=O)c1cnccn1
i,1.2,COc1ccc(-n2c(/C=C\c3ccc(F)cc3)nc3cc(OC)c(OC)cc3c2=O)cc1Cl
i,0.38,N#Cc1ccc(S(=O)(=O)N2CCC(N3CCOCC3)CC2)cc1
i,1.6,CCOC(=O)C1CCN(C(=O)c2snc3c(=O)n(CC)c(=O)[nH]c23)CC1
i,-0.44,O=C(CN1C(=O)CCn2nc(-c3cccc(Cl)c3)cc21)N1CCCCC1
i,0.6,O=C(Nc1ccc(Cl)cn1)c1ccccc1-c1nc(-c2ccccc2)no1
i,-0.18,Cc1cc(C)c2c(n1)sc1c(=O)n(-c3ccc(C(=O)Nc4ccc(Br)cc4)cc3)cnc12
i,-0.24,O=C(NC1CCCC1)c1csc(C(=O)N2CCCC2)n1
i,0.03,O=C(C1CCCN(c2ncc(-c3ccc(F)cc3)cn2)C1)N1CCC(N2CCCCC2)CC1 (stereo not given)
i,1.4,CCOc1cccc(-c2noc(-c3nn(-c4ccc(C)c(C)c4)ccc3=O)n2)c1
i,-0.34,O=C(CCc1nc(CSc2nnc(-c3cccnc3)o2)no1)Nc1ccc(F)cc1F
i,-1,CC1CCCCN1CCNC(=O)C(C)N1C(=O)CCCc2ccccc21 (stereo not given)
i,1.4,Cc1oc2ccc(OCc3ccccc3)cc2c1C(=O)Nc1ccc(Cl)cc1

Compound profiles, as listed above. Screens in order: Anaer choline gr, Anaer choline gr early
O=C(C1CCCN(c2ncc(-c3ccc(F)cc3)cn2)C1)N1CCC(N2CCCCC2)CC1 (stereo not given) as listed: i, 0.03
Cc1sc(-c2noc(C3CC3)n2)cc1NC(=O)c1cnccn1 as listed: i, -0.44

Next part.
Anaer choline gr,Anaer choline gr early,mol
i,1.2,O=C(CN1C(=O)c2ccccc2C1=O)Nc1ccc2c(c1)CCCN2C(=O)c1ccccc1
i,0.27,CC(C)C(=O)NC(C)c1nc(-c2ccccc2Cl)no1 (stereo not given)
i,-1.3,CCOc1ccc2nc(NC(=O)C3CCCN3S(=O)(=O)c3cc(C(=O)OC)n(C)c3)sc2c1 (stereo not given)
i,-1.6,Cc1nn(-c2cc(N3CCCCC3)ncn2)c(C)c1CCC(=O)NC1CCCC1
i,-0.84,CCOC(=O)c1c(S(=O)(=O)N2CCCC(C(=O)Nc3cccc(C)n3)C2)c(C)n(CC)c1C (stereo not given)
i,1.3,O=C(CS(=O)Cc1cnn(-c2ccccc2)c1-n1cccc1)N1CCC(N2CCCCC2)CC1 (stereo not given)
i,0.19,CCn1c(CN(c2ccc(F)cc2)S(C)(=O)=O)nnc1SCC(=O)N1CCc2ccccc21
i,0.8,CC(C)N1CCN(C(=O)C2CC(=O)N(c3ccc4c(c3)CCN4C(=O)C3CC3)C2)CC1 (stereo not given)
i,0.79,O=C(Nc1ccc(F)cc1Cl)c1cc(-c2ccccn2)n[nH]1
i,-0.79,CCOc1ccccc1NC(=O)c1cccn1-c1cccnc1
i,-0.16,COc1cc(-c2noc(-c3ccccc3)n2)ccc1OCC(=O)N1CCOCC1
i,-0.42,CCn1c(=O)c(N2CCC(C(=O)NCCc3c[nH]c4ccccc34)CC2)nc2cccnc21
i,-0.32,CCOC(=O)c1[nH]c(C)c(CCC(=O)NC(C)(C)C)c1C
i,-1.6,O=C(CSc1nc2cc(-c3ccccc3)[nH]c2c(=O)n1Cc1ccccc1)N1CCCCC1
i,-0.85,Cc1onc(-c2ccccc2Cl)c1C(=O)Nc1cc2c(cc1N1CCCC1)n(C)c(=O)c(=O)n2C

Anaer choline gr,Anaer choline gr early,mol
i,-1.8,Cc1ccccc1-c1noc(-c2cccnc2N2CCC(C)CC2)n1
i,-0.16,COc1ccc(CC(=O)NCCc2csc3nc(-c4ccccc4C)nn23)cc1
i,-1.2,CCCn1c(=O)c2ccc(C(=O)NC(C)C)cc2n2c(=O)n(C)nc12
i,0.06,CC(=O)Nc1cc(-c2nc(-c3cc4c(C)nn(-c5ccccc5)c4s3)no2)ccc1C
i,1.6,O=C(Nc1cccc(Br)c1)N1CCCN(c2nc3cc(F)ccc3n3cccc23)CC1
i,0.01,CCc1nc(SCC(=O)NCC2CCCO2)c2c(=O)n(C)c(=O)n(C)c2n1 (stereo not given)
i,-0.24,CCc1ccc(-c2cn3nc(N4CCC(C(=O)NCc5ccc(F)cc5)CC4)sc3n2)cc1
i,-0.4,Cc1ccc(S(=O)(=O)N2CCC[C@@H]2C(=O)NCCc2csc(C)n2)cc1
i,-0.47,COc1ccc(N2CCN(C(=O)c3[nH]c(C)c(S(=O)(=O)N4CCC(C)CC4)c3C)CC2)cc1

Two records picked at random from those above:
Anaer choline gr,Anaer choline gr early,mol
i,1.6,O=C(Nc1cccc(Br)c1)N1CCCN(c2nc3cc(F)ccc3n3cccc23)CC1
i,-1.2,CCCn1c(=O)c2ccc(C(=O)NC(C)C)cc2n2c(=O)n(C)nc12

The list is partial, so the mix of outcomes need not match the whole.
